Mtb hypoxia rep – PubChem AID 1159583. fluorescence inhibition, % (test concentration not listed). M. tuberculosis hypoxia-regulated fluorescent reporter, fluorescence. 300,000 compounds, 0.1% hits;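 active means 35 to 45% if threefold the growth effect, above 45% if 1.5-fold the growth effect; inactive means the rest, general growth blockers included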;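 further: wells of about 50 µL received 100 nL stock; 0% = vehicle wells and 100% = reference inhibitor wells; whole bacteria with a GFP reporter of the hypoxia response; strong numbers were not always called active; many hits fall short of the cut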
Sa ugtP lethal – growth inhibition of ugtP-null S. aureus, primary screen, RN4220 ugtP deletion, OD600. 330,000 compounds, 0.54% hits. 16 h; some inactives read as strong as hits. AID 1259309, 2017. growth inhibition, % (no concentration beside the values);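 active means z-score under -3 and OD600 up to 0.15 on both plates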;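 further: plate controls were untreated wells for no effect and antibiotic for full effect; wells of about 80 µL received 100 nL stock; the first replicate is given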
Autofluor counter – counter-screen for toxin protease inhibitors: compound fluorescence. 360,000 compounds, 3.1% hits. compound autofluorescence counterscreen, microsphere flow cytometry; stronger effect = higher value. AID 624483. fluorescence intensity (concentration not given with the values);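 active means at least 3 SD above the mean of all compounds, about 16000 in these data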;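 further: 100 nL of 1 mM stock went into each well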
BJeLR lethal – MLPCN primary cell-based screen for lethality selective to Ras in HRASV12 cells | BJeLR (HRASV12) viability, CellTiter-Glo ATP luminescence, 48 h; reference of the scale not given here | inhibition, % (concentration not given with the values) | 300,000 compounds, 0.17% hits | AID 1554, 2009;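 active means replicate mean above 50%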;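 further: 50 nL library stock added to about 25 µL; numbers are from one replicate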
RN4220 kill – growth inhibition of S. aureus RN4220, primary screen, OD600. inhibition, % (concentration not given with the values). 330,000 compounds, 0.33% hits. 16 h;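 active means z-score of -3 or lower and OD600 up to 0.18 on both plates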;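 further: plate controls were untreated cells for no effect and reference antibiotic for full effect; stock transfer was 100 nL into about 80 µL; one replicate is shown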
PrP UTR inh – inhibition of PrP 5' UTR reporter expression; cell-based PrP 5' UTR mRNA reporter, plate reader; inhibition, % (test concentration not listed); 340,000 compounds, 0.35% hits; AID 488862, 2010;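 active means every replicate at 50% or more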;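 further: 0 = median of the neutral control wells; tested in H4 reporter cells; numbers are from one replicate; inactives centre near -14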
Mtb hypoxia rep growth – second read-out of Mtb hypoxia rep, no call of its own (marks repeat the call); growth inhibition, %; measured here: M. tuberculosis growth (absorbance);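 0% = vehicle and 100% = reference antibiotic; read after six days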
* marks the source's active call; other numbers are inactive results; . = no result given.

Fields – RN4220 kill | Mtb hypoxia rep growth | Sa ugtP lethal | BJeLR lethal | Autofluor counter | PrP UTR inh | Mtb hypoxia rep
- CCOC(=O)C1=C(C)N=c2sc(=Cc3ccc(OCC(=O)O)cc3)c(=O)n2C1c1ccccc1 (configuration not stated)
  1.5 | -2 | -5 | . | . | . | -4
- CC(=O)N(C)c1nnc(-c2cnccn2)s1
  -13 | 4 | -3 | 19 | 2837 | -26 | 0
- O=C(COC(=O)Cn1cnc2ccccc2c1=O)NCC12CC3CC(CC(C3)C1)C2
  4.0 | -2 | -3 | 8 | 2174 | -19 | 1
- CCOC(=O)c1sc2nc(C)n(N)c(=O)c2c1C
  5.1 | 15 | 9 | 4 | 5058 | -16 | 11
- O=C(COC(=O)c1ccc(F)c(S(=O)(=O)N2CCCCC2)c1)NCc1ccc(F)cc1
  1.6 | 0 | -3 | 3 | 2224 | -30 | 10
- COc1ccc(-c2nnn(Cc3ccccc3F)n2)cc1
  2.2 | 19 | 15 | -4 | 2883 | -108 | 16
- Cc1ccnc(N2CCCC(C(=O)NCc3cccs3)C2)n1 (configuration not stated)
  6.1 | 7 | -8 | -2 | 3588 | -26 | 2
- CC(=O)NC(CC(=O)NNC(=O)COc1c(C)cccc1C)c1ccccc1 (configuration not stated)
  3.6 | 8 | 11 | . | 3558 | -6 | 18
- O=C(NCc1cccnc1)C(=O)NN=Cc1ccc([N+](=O)[O-])cc1
  5.6 | 9 | -2 | . | . | . | 8
- Cc1cccc(N2CCN(C(=O)C3COc4ccccc4O3)CC2)c1C (configuration not stated)
  -1.1 | 8 | 2 | 3 | 2521 | -20 | 6
- COC(=O)C1=C(C)N(c2ccc(S(N)(=O)=O)cc2)C(=O)C1
  -4.1 | 7 | 0 | -9 | 2348 | -14 | 5
- CN1C2CCC1CC(NC(=O)c1cc(S(=O)(=O)N(C)C)c(Cl)cc1Cl)C2 (configuration not stated)
  0.8 | 6 | 2 | . | 4322 | -34 | 19
- CCc1nn(CCCC(=O)Nc2ccc(C)c(C)c2)c(=O)c2cc3occc3n12
  4.7 | 11 | 9 | 2 | 5249 | -9 | 10
- CSc1cccc(CN2CCN(Cc3ccc(F)c(F)c3)C(CCO)C2)c1 (configuration not stated)
  4.6 | 0 | -3 | 7 | 5429 | -58 | 4
- CCC1CCCCN1S(=O)(=O)c1ccc(C(=O)Nc2nnc(-c3cccs3)o2)cc1 (configuration not stated)
  95* | 16 | 99* | . | 3385 | 24 | 7
- O=C(Oc1ccc2ccc(O)cc2c1)C1CCCCC1
  7.7 | 4 | 6 | -5 | 4845 | -25 | 4
- CCOc1ccc(OCc2cccc(C(=O)N3CCOCC3)c2)cc1
  3.6 | 5 | 8 | 0 | 9223 | 61* | 8
- Cc1ccc(NC(=O)C2=CC(c3cccs3)=NS(=O)(=O)N2C)cc1
  -0.1 | 0 | -12 | 3 | 6341 | -10 | -2
- CCc1c(C)nc(SCC(=O)Nc2ccc3c(c2)OCCO3)[nH]c1=O
  7.5 | 11 | -1 | -10 | 3992 | -23 | 8
- O=S(=O)(Cc1ccccc1Cl)N1CCCC1
  2.3 | 5 | -3 | -1 | 3588 | -18 | 2
- Cn1c2c(c(=O)n(C)c1=O)C(c1ccccc1F)C(C#N)=C(N)O2 (configuration not stated)
  5.9 | -1 | 5 | 9 | 2208 | -11 | 5
- Cc1cccc(N2CCN(Cc3nc(-c4ccc(F)cc4F)oc3C)CC2)n1
  8.3 | 4 | 2 | -17 | 3495 | -3 | 11
- O=C(/C=C/c1ccccc1)c1cc(Br)ccc(=O)c1O
  99* | 33 | 99* | 24 | 2344 | -28 | 20
- COc1ccc(S(=O)(=O)N2CCC(C(=O)NCCc3ccccc3)CC2)cc1OC
  3.8 | 9 | 5 | 3 | 9903 | . | 2
- COC(=O)C(NS(=O)(=O)c1ccc(F)cc1)c1ccccc1 (configuration not stated)
  -1.3 | 2 | -6 | -7 | 2114 | 3 | -1
- COC(=O)Nc1[nH]ncc1[N+](=O)[O-]
  6.9 | 8 | 3 | 2 | 4404 | -7 | 5
- COc1cccc(NC(=O)NCc2ccc(F)cc2)c1
  -1.6 | 2 | 6 | 4 | 1898 | -30 | 2
- Cc1cccc(C)c1NC(=O)COC(=O)c1ccccc1[N+](=O)[O-]
  5.9 | 1 | 10 | -10 | 2589 | -57 | 14
- COc1cccc(C(=O)NCCS(=O)(=O)N2CCC(C)CC2)c1
  . | . | . | 9 | 5729 | -11 | .
- COc1ccc(C(=O)N2CCC(C(=O)Nc3ccccc3OC)CC2)cc1
  10 | 14 | -9 | -5 | 22688* | -16 | 4
- CCCN1CCC(=O)N([C@H](CSc2ccc(OC)cc2)Cc2ccccc2)CC1
  . | . | . | 1 | 4618 | -23 | .
- Cc1ccc(CN2CCN(Cc3ccccn3)CC2CCO)cc1 (configuration not stated)
  -0.4 | -7 | 0 | 7 | 2527 | -6 | -9
- CC(C)Oc1ccc(C(=O)Nc2nc3ccccc3[nH]2)cc1
  5.4 | -1 | -17 | 29 | 5994 | 61* | -2
- CCCCCC(=O)Nc1nnn(CCC)n1
  1.0 | 2 | 4 | -6 | 8052 | -17 | 5
- COc1ccc(-c2cc(C(=O)Nc3cc(C)n(Cc4ccc(Cl)cc4)n3)no2)cc1OC
  -1.2 | 6 | -29 | 12 | 11128 | -8 | 0
- CCC(NC(=O)c1ccccc1NC(=O)C(C)(C)C)C(=O)N1CCCC1 (configuration not stated)
  0.9 | 0 | 6 | 7 | 3863 | -3 | 2
- COc1ccc(C=NNC(=O)c2ccco2)cc1OCc1ccccc1
  0.5 | 8 | -8 | . | . | . | -6
- CCOC(=O)c1cnc2c(c(C)nn2-c2ccc(C)cc2)c1Cl
  2.8 | 8 | 2 | 16 | 3428 | -4 | 2
- COc1ccc(CCN(C)C(=O)c2cc(S(=O)(=O)N3CCCCC3)ccc2Cl)cc1OC
  1.9 | 3 | 8 | -1 | 5936 | -5 | 10
- CC[C@]12c3[nH]c4cc(-c5ccco5)ccc4c3CCN1C(=O)[C@@H](CC(=O)NC(C)(C)C)C[C@@H]2C(=O)N1CCN(C(=O)c2ccco2)CC1
  1.0 | 8 | -5 | . | 3722 | -13 | -8
- CCCc1c(C)nc(SCC(=O)C(C)(C)C)nc1OC(=O)N(C)C
  1.7 | 0 | 4 | -5 | 5712 | -24 | 1
- C/C=C/c1ccc(OCC(=O)OCc2csc(Nc3ccc(C)cc3)n2)c(OC)c1
  8.7 | 1 | -3 | 13 | 3027 | -52 | 11
- C#CCn1c(=NC(=O)CN2C(=O)CCC2=O)sc2cc(S(N)(=O)=O)ccc21
  1.5 | 0 | 6 | -12 | 2009 | -14 | 6
- CC(C)c1ccc2[nH]c(O)c(N=NC(=O)c3cccc(S(=O)(=O)Nc4ccc(Cl)cc4)c3)c2c1
  -8.9 | 4 | 13 | 8 | 3294 | -14 | 14
- C=CCNC(=O)C1CCCN(S(=O)(=O)c2ccc(-n3cnnn3)cc2)C1 (configuration not stated)
  3.5 | -7 | 0 | -10 | 6508 | -10 | -4

Shown with tabs: part of the list above
structure	RN4220 kill	Mtb hypoxia rep growth	Sa ugtP lethal	BJeLR lethal	Autofluor counter	PrP UTR inh	Mtb hypoxia rep
CCOC(=O)c1cnc2c(c(C)nn2-c2ccc(C)cc2)c1Cl	2.8	8	2	16	3428	-4	2
COc1ccc(CCN(C)C(=O)c2cc(S(=O)(=O)N3CCCCC3)ccc2Cl)cc1OC	1.9	3	8	-1	5936	-5	10
CC[C@]12c3[nH]c4cc(-c5ccco5)ccc4c3CCN1C(=O)[C@@H](CC(=O)NC(C)(C)C)C[C@@H]2C(=O)N1CCN(C(=O)c2ccco2)CC1	1.0	8	-5	.	3722	-13	-8

Further structures:
Fields – RN4220 kill | Mtb hypoxia rep growth | Sa ugtP lethal | BJeLR lethal | Autofluor counter | PrP UTR inh | Mtb hypoxia rep
- O=[N+]([O-])c1cnc2nc(-c3ccncc3)nn2c1O
  . | . | . | 17 | 2753 | -23 | .
- COc1ccc(C(=O)C2CCCN(C(=O)c3cnsn3)C2)c(C)c1 (configuration not stated)
  5.6 | 10 | 8 | 0 | 3672 | -10 | 5
- CCOC(=O)C1=C(N)N2C(=O)C(C)SC2=C(C(=O)OC)C1c1cccc(OC)c1 (configuration not stated)
  2.1 | . | 2 | -2 | 4520 | -10 | .
- Cc1ccc(OCC(=O)N2CCc3ccccc32)cc1
  0.6 | -4 | 1 | 3 | 1984 | -76 | 7
- COc1cc(/C=C2/SC(=NCc3ccccc3)N(Cc3ccccc3)C2=O)ccc1O
  . | . | . | -9 | 3249 | -5 | .
- CC(=NNC(=O)c1ccco1)c1ccc(C(=O)O)s1
  6.4 | 3 | 9 | . | . | . | 6
- CCCn1c(=O)c2ccccc2n2c(SCCOc3ccc(C)cc3)nnc12
  1.7 | 4 | 7 | -6 | 8431 | -2 | 12
- CCC(CC)n1[nH]c(=O)c2c(C)cc(C)nc21
  2.6 | . | -5 | . | 4495 | -28 | .
- CCOc1ccc(-c2c(C(=O)N/N=C(\C)c3cccs3)nnn2-c2nonc2N)cc1
  . | . | . | 0 | 5071 | -9 | .
- O=C1c2cccc3cccc(c23)C(=O)N1c1nncs1
  -14 | 5 | -5 | -9 | 2845 | -12 | 9
- Cc1ccc(NP(=O)(c2ccc(N(C)C)cc2NC(=O)c2cccs2)N2CCOCC2)cc1Cl (configuration not stated)
  3.7 | 6 | 11 | 1 | 2580 | -5 | 7
- O=C(NN=Cc1ccc(Cl)s1)c1ccc(Cn2cccn2)o1
  -1.1 | 5 | -2 | . | . | . | -7
- CC(C)N(Cc1ccccc1)C(=O)CCS(=O)(=O)c1ccc2c(c1)oc(=O)n2C
  1.1 | 4 | 4 | 1 | 5719 | -10 | 0
- CCOC(=O)c1[nH]c(C)c(C(=O)NCC2CCCO2)c1C (configuration not stated)
  2.3 | 3 | -3 | -1 | 3213 | -3 | 5
- Cc1ccc(C)c(NC(=O)CCn2cnnn2)c1
  -1.1 | 1 | 3 | -17 | 2119 | -2 | -4
- Nc1ccccc1C(=O)c1ccccc1
  1.5 | . | 5 | 4 | 5487 | -15 | .
- COc1ccc(C2CCCN2C(=S)Nc2ccc(C)cc2C)cc1OC (configuration not stated)
  -1.1 | -1 | -6 | 1 | 4233 | -17 | -7
- O=C(NNC(=O)c1cccs1)c1cccnc1
  7.6 | -6 | 1 | -1 | 3000 | 14 | -6
- C[C@@H]1CN([C@@H](C)CO)C(=O)c2cc(NS(C)(=O)=O)ccc2O[C@H]1CN(C)Cc1ccc(Oc2ccccc2)cc1
  -7.0 | 9 | -1 | . | 3478 | -3 | -3
- Cn1c2c(c(=O)n(C)c1=O)C(c1ccc(Br)cc1)Nc1ccccc1O2 (configuration not stated)
  5.7 | -4 | 1 | 11 | 8120 | 4 | -2
- CC(=O)Nc1ccc(SCc2c(C)noc2C)cc1
  6.0 | 0 | 11 | 14 | 3175 | 1 | -4
- Cn1c(=O)n(C)c2cc(C(=O)O)ccc21
  2.0 | 6 | 1 | -5 | 4594 | -3 | 1
- O=C(Nc1ccccc1N1CCCCC1)c1ccc(OC(F)F)cc1
  -1.5 | 6 | -5 | -13 | 5719 | -10 | 13
- CCC(Oc1ccccc1)C(=O)Nc1ccc(C)c(S(=O)(=O)N2CCOCC2)c1 (configuration not stated)
  3.2 | -5 | 4 | -2 | 6275 | -24 | -2
- COc1cccc(N2CC(=O)N(NC(=O)CSc3nc(C)cc(C)c3C#N)CC2=O)c1
  1.5 | -3 | 6 | -7 | 6825 | -19 | 8
- CCN(CC(=O)Nc1cccc(OC)c1)CC(=O)Nc1ccc(Br)c(C)c1
  -9.4 | 4 | -41 | -3 | 3655 | 9 | -17
- CS(=O)(=O)N(Cc1nc(-c2ccc(F)cc2)no1)c1ccccc1Cl
  2.7 | 16 | -1 | . | 3837 | -30 | 9
- Cc1cc(CNC(=O)c2cccc3c2C(=O)c2ccc(-c4ccc(F)cc4OCc4ccccc4)cc2S3(=O)=O)c(C(F)(F)F)o1
  4.7 | 2 | -1 | . | 4036 | -25 | 14
- O=C(Nc1ccc(Oc2ccsc2C(=O)O)cc1)c1ccccc1
  2.5 | 17 | 6 | 6 | 3552 | -4 | 23
- CCOC(=O)c1c(NC(=O)CN2CCN(C)CC2)sc(C(=O)Nc2ccccc2)c1C
  1.9 | 9 | 9 | 2 | 2253 | -25 | 18
